GLA inh pH 4.5 – alpha-galactosidase A (human) inhibition, pH 4.5 | activity change, negative = inhibition, % at 105 µM | P06280 | AID 1467 | 230,000 tested, under 10 active | purified enzyme, 4-MU-alpha-Gal fluorescence, pH 4.5; inconclusive = small, poorly fitted or top-dose-only inhibition, or a rising curve; inactive = flat fitted curve, though single readings scatter; no compound was filed as active;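 also: 0% = full activity with enzyme and -100% = basal without enzyme; dose as in the result columns while the protocol names 77 µM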
Target sequence (P06280 whole entry, looked up): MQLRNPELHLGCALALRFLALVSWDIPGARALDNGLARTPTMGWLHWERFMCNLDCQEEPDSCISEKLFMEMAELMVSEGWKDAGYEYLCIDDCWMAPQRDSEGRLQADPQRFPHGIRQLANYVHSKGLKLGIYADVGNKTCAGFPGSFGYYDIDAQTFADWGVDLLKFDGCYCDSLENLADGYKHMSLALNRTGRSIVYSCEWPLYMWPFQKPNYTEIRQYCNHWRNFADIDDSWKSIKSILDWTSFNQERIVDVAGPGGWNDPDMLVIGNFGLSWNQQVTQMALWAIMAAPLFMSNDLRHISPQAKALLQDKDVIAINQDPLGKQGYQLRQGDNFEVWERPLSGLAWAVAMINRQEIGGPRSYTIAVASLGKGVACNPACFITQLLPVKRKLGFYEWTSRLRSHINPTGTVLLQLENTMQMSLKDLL
miR-21 reporter – miR-21 reporter, rising signal | Potency, µM (top dose mostly 38.3 µM), without a hit: at the highest dose reporter change, positive = more light | AID 2288 | HeLa miR-21 FLuc reporter, luciferase, 48 h | 340,000 tested, under 10 active; active = well fitted rising curve with a large enough effect; inconclusive = small, poorly fitted or top-dose-only effect; inactive = no such curve, though single readings can be large or run the other way;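 also: % of control where 0% means no effect; miR-21 action dims this reporter so a rising signal means less miR-21 action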
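HeLa cells endogenously expressing miR-21, stably carrying CMV-driven firefly luciferase with a downstream miR-21 binding site, 2000 cells/well. Titrations up to approximately 40 uM, 48 hours; luciferase luminescence read.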
Rango complex inh – prevents formation of the Rango-importin beta complex | Q14974 | Rango CFP/YFP FRET sensor + importin beta, 45 min | AID 540263 | Potency, µM (top dose mostly 92.2 µM), inactives show top-dose inhibition of complex formation | hit rate 0.031% among 340,000; active = rising FRET ratio curve, often small or poorly fitted; inconclusive = mostly compound fluorescence or quenching in the first reads; inactive = flat curves in all reads;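 also: potency is read from the fitted curve at half-maximal effect; 0% = DMSO wells and 100% = buffer wells lacking importin beta; nearly all actives have a fitted effect of over 15% in size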
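FRET biosensor Rango (snurportin 1 IBB between N-terminal EYFP and C-terminal Cerulean), 50 nM in PBS/1 mM DTT/0.02% Tween-20/0.1% BSA, preincubated 5 min RT with compound; 0.125 microM importin beta added, 45 min RT, CFP/YFP FRET ratio read.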
Rango dissoc inh – inhibitors of RanGTP-induced Rango-importin beta complex dissociation | O95149+P62826 | Biochemical FRET Rango-importin beta, RanGTP-induced dissociation | Potency, µM (series often up to 46.1 µM), inactives show at the top dose activity change, negative = inhibition | hit rate 0.071% among 340,000; active means falling FRET ratio curve, often poorly fitted, with flat reads before Ran was added; inconclusive means other falling curves, or compound fluorescence or quenching; inactive means flat or rising ratio curve;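 also: potency is read from the fitted curve at half-maximal effect; % of control where 0% means no effect; nearly all actives have a fitted effect of over 45% in size; -100% = wells without RanGTP and RCC1; the record marks most hits as doubtful in a second field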
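Compounds preincubate 5 min with complex of recombinant Rango and importin beta in PBS with 1 mM DTT. Ran (0.6 uM) loaded with 2 mM GTP plus 0.2 uM RCC1 starts dissociation; FRET is recorded 45 min later.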
Active calls of the source: *; ? = inconclusive; / = not tested or not shown; [ ] = dose if it differs, or a comment.

Every second line gives: GLA inh pH 4.5 | miR-21 reporter | Rango complex inh | Rango dissoc inh
CC(OC(=O)/C=C/c1ccc2ccccc2n1)C(=O)Nc1ccc(S(N)(=O)=O)cc1 (stereo unspecified)
    / | / | 1.4% | -20%
CCC1CCCCN1CCCNC(=O)CCCNC(=O)Cn1cnc2sc3c(c2c1=O)CCCC3 (stereo unspecified)
    7 | 0% | -1.3% | ?
O=S(=O)(NCc1ccco1)c1cccc2cccnc12
    3 | -1% | -0.9% | 9%
Cc1ccc(C(=O)Nc2nnc(-c3ccco3)o2)cc1C
    -3 | -32% | -2.0% | 0%
O=C(CSc1nc2ccccc2c(=O)n1-c1ccccc1)NCC1CCCO1 (stereo unspecified)
    / | -5% | 0.0% | -1%
Cc1cccc(NC(=O)c2ccc3nccnc3c2)c1C
    / | -2% | -1.1% | -5%
COC(=O)c1cnc(SCc2ccc(Cl)cc2)n1C
    2 | -44% | -0.6% | -9%
O=C(C[C@H]1C[C@H](C(=O)N2CCOCC2)[C@@]2(CCC3CCCC3)c3[nH]c4cc(-c5ccco5)ccc4c3CCN2C1=O)NCc1ccco1
    / | / | -3.9% | 5%
CCOc1ccc(N2CC(C(=O)Nc3nnc(CC)s3)CC2=O)cc1 (stereo unspecified)
    / | 1% | 5.2% | 7%
Cc1ccc(CCNC(=O)C2CC(c3cc(C(F)(F)F)cc(C(F)(F)F)c3)=NO2)cc1 (stereo unspecified)
    -4 | 7% | 0.0% | -6%
COc1ccc2cc(C(=O)C3CCCN(Cc4cnc(N5CCOCC5)s4)C3)ccc2c1 (stereo unspecified)
    -16 | 16% | 0.8% | 4%
C[n+]1ccc(/C=C/c2ccc(Br)cc2)cc1
    -12 | 25% | 1.9% | 2%
CCN(c1ccccc1)S(=O)(=O)c1cccc(C(=O)NCCN2CCOCC2)c1
    / | / | 4.1% | 4%
C=C(C)CNC(=S)NNC(=O)CCn1c2ccc(Cl)cc2c2cc(Cl)ccc21
    -3 | -2% | -3.6% | 4%
Cc1ccc(-c2nc(CS(=O)(=O)CC(=O)N3CCCCCC3)c(C)o2)cc1
    -1 | 9% | 2.2% | 11%
COc1cccc(Nc2ccc(-n3ccnc3)nn2)c1
    -2 | -7% | -0.3% | 1%
COc1cccc2cc(C(=O)NCCc3ccccc3)c(=O)oc12
    / | -26% | -3.6% | 13%
CN(C)S(=O)(=O)c1cc(NC(=O)COC(=O)CC2Sc3ccccc3NC2=O)ccc1Cl (stereo unspecified)
    / | / | ? | -12%
Cc1ccccc1NC(=O)CN1C(=O)NC2(CCCCC2)C1=O
    -11 | -1% | -1.6% | 25%
COC(=O)c1c(C)oc2ccc(NS(=O)(=O)c3cc(OC)ccc3OC)cc12
    -3 | 19% | -2.3% | -21%
COc1ccc(N=C2C(=O)N3c4c(cccc42)C(C)=CC3(C)C)cc1
    7 | 20% | 8.1% | 4%
O=C(Cc1ccccc1)NCCSCc1ccco1
    -2 | -16% | 2.4% | -10%
CC(NC(=O)COC(=O)CSCc1ccccc1)c1ccccc1 (stereo unspecified)
    -4 | -1% | -4.5% | 0%
CC1CCN(CCOc2cccc(Br)c2)CC1
    -6 | -5% | 5.7% | 1%
COc1ccc(OCC(=O)NC2CC(C)(C)NC(C)(C)C2)cc1
    -1 | -9% | -0.7% | -5%
COc1ccc(CCn2c(=O)[nH]c3cc(C(=O)NCCN4CCOCC4)ccc3c2=O)cc1OC
    6 | -4% | -3.1% | -3%
COCCCn1c(SCC(=O)N2CCOCC2)nc2cc(Cl)ccc2c1=O
    / | / | 1.7% | 19%
CC(=O)N1c2ccc(S(=O)(=O)N3CCC(C(=O)Nc4ccc(F)cc4)CC3)cc2CC1C (stereo unspecified)
    / | 15% | 4.0% | 2%
Cc1nn(CC(=O)O)c(C)c1N
    5 | -1% | -0.4% | -22%
CSc1nsc(SCC(=O)Nc2ccccc2F)n1
    / | -51% | 6.4% | 11%

An excerpt of these results, with each value named:
COCCCn1c(SCC(=O)N2CCOCC2)nc2cc(Cl)ccc2c1=O
  GLA inh pH 4.5 = /
  miR-21 reporter = /
  Rango complex inh = 1.7%
  Rango dissoc inh = 19%

CC(=O)N1c2ccc(S(=O)(=O)N3CCC(C(=O)Nc4ccc(F)cc4)CC3)cc2CC1C (stereo unspecified)
  GLA inh pH 4.5 = /
  miR-21 reporter = 15%
  Rango complex inh = 4.0%
  Rango dissoc inh = 2%

Cc1nn(CC(=O)O)c(C)c1N
  GLA inh pH 4.5 = 5
  miR-21 reporter = -1%
  Rango complex inh = -0.4%
  Rango dissoc inh = -22%

CSc1nsc(SCC(=O)Nc2ccccc2F)n1
  GLA inh pH 4.5 = /
  miR-21 reporter = -51%
  Rango complex inh = 6.4%
  Rango dissoc inh = 11%

(further entries)
Every second line gives: GLA inh pH 4.5 | miR-21 reporter | Rango complex inh | Rango dissoc inh
CCOC(=O)c1c(NC(=O)C2COc3ccccc3O2)sc2c1CC(C)(C)NC2(C)C (stereo unspecified)
    -17 | 5% | 3.4% | 5%
CCOC(=O)c1ccc(S(=O)(=O)Nc2ccc3cn[nH]c3c2)cc1
    -8 | 4% | -0.5% | -1%
COc1cc(/C=C/C(=O)NNC(=O)c2cccc(S(=O)(=O)N(C)C)c2)cc(OC)c1OC
    / | / | -0.2% | -2%
Cc1conc1NC(c1cccs1)c1ccc2cccnc2c1O (stereo unspecified)
    -3 | 23% | / | /
O=C(N/N=C/c1ccccc1O)C1CC(=O)N(c2ccc(F)cc2)C1 (stereo unspecified)
    / | 13% | -1.8% | -8%
CCS(=O)(=O)N1CCC(C(=O)c2ccc(Cl)cc2)CC1
    5 | -10% | 7.9% | -14%
Fc1ccccc1N1CCN(c2ncnc3[nH]ncc23)CC1
    3 | -25% | 3.1% | -1%
COc1ccc(NC(=O)c2cc(C)on2)cc1
    7 | -39% | 0.3% | -10%
CN(NC(=O)c1ccc(Cl)cc1)c1ncc(C(F)(F)F)cc1Cl
    3 | 3% | -0.9% | -3%
COCCNC(=O)c1ccccc1-c1nc(-c2ccccc2OC)no1
    3 | -10% | -2.6% | -16%
COc1ccc2oc(C(=O)Nc3nc(-c4ccccn4)cs3)c(C)c2c1
    / | / | ? | -9%
CCN1CCN(C(=O)CCc2nnc3ccc(N4CCN(c5cccc(OC)c5)CC4)nn23)CC1
    / | 2% | 1.3% | -14%
Cc1cc(=O)[nH]c(SCC(=O)c2ccc(O)c(O)c2)n1
    / | -4% | 0.9% | -3%
COc1ccc(N2CCN(C(=O)[C@H](Cc3c[nH]c4ccccc34)NC(C)=O)CC2)cc1
    2 | -1% | -2.7% | -1%
CC(NC(=O)c1ccc2c(c1)OCO2)c1cccc(C(F)(F)F)c1 (stereo unspecified)
    / | / | 1.0% | 3%
Cc1cc(-c2csc(N)n2)c(C)n1C
    2 | -3% | ? | -24%
Cc1ccc(CN2CCN(CC(=O)NC(C)CCc3ccccc3)C2=O)cc1 (stereo unspecified)
    -4 | 6% | -2.7% | -5%
Cc1ccc(S(=O)(=O)Nc2c(C)nc3nc[nH]n3c2=O)c(C)c1
    -1[21.1 µM] | 3% | 2.7% | 8%
COC(=O)c1ccc(CSc2cc(C)c3cccc(C)c3n2)o1
    15 | -6% | 0.8% | -14%
Cc1nn(CC(=O)N2CCC(C(N)=O)CC2)c(=O)c2nn(-c3ccccc3)c(C)c12
    / | 1% | -0.4% | 0%
O=C(CSCc1n[nH]c(=O)[nH]1)NCCOc1cccc(Oc2ccccc2)c1
    -6 | -5% | -0.5% | 0%
O=C(COC(=O)CN1C(=O)C2CCCCC2C1=O)Nc1c(Cl)cccc1Cl (stereo unspecified)
    / | / | -1.7% | -8%
CC1CC(NNC(=O)c2ccccc2)=Nc2ccccc2N1C (stereo unspecified)
    9 | -3% | -2.1% | 10%
CC(Oc1ccc(C(=O)NC2CCCCC2)cc1)C(=O)O (stereo unspecified)
    -11 | 2% | -1.3% | -5%
CN(C(=O)c1cccc(Cl)c1)C1CCCN(Cc2ccccc2F)C1 (stereo unspecified)
    / | 0% | 4.5% | -3%
CC(=O)NC(CC(=O)OC(C)C(=O)Nc1ccc(Cl)cn1)c1ccccc1 (stereo unspecified)
    / | / | 0.2% | -2%
O=C1c2ccccc2C(O)N1Cc1ccccc1Cl (stereo unspecified)
    -4 | -4% | -3.1% | -11%
CS(=O)(=O)N1CCCC(c2nc(-c3ccc(S(=O)(=O)NCc4ccccc4)cc3)no2)C1 (stereo unspecified)
    3 | ? | -1.8% | 2%
Cc1ccc(Cn2c(Sc3ncccn3)nc3c2c(=O)[nH]c(=O)n3C)cc1
    4 | -7% | -3.7% | 1%
O=C(/C=C/c1ccc([N+](=O)[O-])cc1)NCc1cccs1
    -4 | -28% | 0.3% | 10%

(continued)
molecule	GLA inh pH 4.5	miR-21 reporter	Rango complex inh	Rango dissoc inh
Cc1cnc(=O)[nH]c1SCc1cccc([N+](=O)[O-])c1	/	2%	4.1%	7%
Cc1ccc(S(=O)(=O)Cn2nnnc2C(CC(C)C)N2CCN(C)CC2)cc1 (stereo unspecified)	-5	-2%	1.5%	-9%
O=C(O)c1ccc2c(c1)C(=O)N(c1ccc(Nc3ccccc3)cc1)C2=O	/	5%	1.3%	22%
CC(C)Cc1nnc(NC(=O)CC(=O)Nc2ccccc2C(=O)O)s1	-4	-6%	0.6%	-17%
O=C(NC(Cc1ccccc1)C(=O)O)/C(=C\c1ccco1)NC(=O)c1ccccc1Br (stereo unspecified)	5	-5%	-0.3%	2%
CC1(c2ccccc2)NC(=O)N(CC(=O)Nc2ccccc2N2CCCCC2)C1=O (stereo unspecified)	/	/	-2.0%	17%
COc1ccc(C(=O)NCCC(=O)NCc2cc(=O)n(C)c(=O)n2C)cc1	/	-1%	3.4%	13%
CCC(=O)NN1CCc2cc3ccc(C)cc3nc21	/	-1%	-1.4%	6%
Cc1noc(C)c1S(=O)(=O)N(CC(=O)NC1CCC(C)CC1)c1ccc(C(C)C)cc1 (stereo unspecified)	/	-2%	1.9%	-16%
CCOC(=O)c1cc(-c2ccccc2)sc1NC(=O)CSc1nnnn1C	-10	-6%	-1.1%	-7%
Cn1c(N)c(C(=O)COC(=O)c2ccc(C(F)(F)F)cc2)c(=O)n(C)c1=O	/	/	3.1%	-7%
Cc1cccc2cc(CN(Cc3cccs3)S(=O)(=O)c3ccc4c(c3)OCCO4)c(=O)[nH]c12	2	-1%	3.9%	0%
O=C(/C=C/c1ccc2c(c1)OCO2)c1ccco1	4	-31%	?	-15%
CC(=O)Nc1ccc(C(=O)N2CCCC2)cc1	7	-1%	0.3%	17%
CC(NC(c1ccccc1)c1ccccc1)C(=O)N1CCCc2ccccc21 (stereo unspecified)	-7	0%	5.0%	0%
Cc1cc(C)n2nc(SC(C)C(=O)Nc3ccc(Cl)cn3)nc2n1 (stereo unspecified)	10	0%	2.4%	-3%
Cc1ccc(OCC(=O)OCC(=O)NC2CC2)cc1C	/	/	-0.2%	-11%
COc1ccccc1N1CCN(CCC(=O)Nc2ccc(F)cc2)CC1	/	1%	0.0%	-13%
COc1cccc(NC(=S)N2c3ccccc3CC2C)c1 (stereo unspecified)	/	-22%	-1.7%	-10%
CCN(CC)c1ccc(/C=C(/C#N)C(=O)NC(C)C)o1	-7	-46%	?	?
O=C(O)c1cccc(NC(=O)c2cc(S(=O)(=O)N3CCOCC3)cs2)c1	3	-2%	-3.0%	-6%

These rows are one share of the data. The share of hits here may be higher or lower than overall.
